Screening results: PubChem BioAssay, several laboratories
YopH PTP inh: YopH tyrosine phosphatase inhibitors, primary screen, biochemical, fluorescence Ex485/Em525. actives 0.16% (n = 140,000). inhibition, %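 (about 10 µM by stock and volumes)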;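 active means inhibition of 50% or more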;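 further: controls were vehicle for no effect and minimum signal wells for full effect; inactives centre near -20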
Mtb H37Rv: M. tuberculosis H37Rv growth inhibitors, H37Rv strain (AID 1626). M. tuberculosis H37Rv growth inhibition; higher % means a stronger effect. inhibition, % at 10 µM, or IC50 in µM where a hit was titrated. actives 0.95% (n = 220,000);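 active means confirmed in a dose series; inconclusive means inhibition above 80% but not taken into the dose series; inactive means below 80% or under 30% at every dose of the series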;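 further: bacteria incubated seven days before Alamar blue readout; 0% = bacteria only wells and 100% = bacteria with antibiotic wells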
Arbovirus inh: antivirals against arbovirus infection, primary screen, cell-based, full library, 10K replicate subset; arbovirus infection cell-based antiviral screen; inhibition, % at 10 µM; actives 0.37% (n = 200,000);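 active means inhibition from about 30%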;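 further: bluetongue infection of BSR cells; cell survival read as ATP light after 72 h; 0% = infected wells without compound and 100% = uninfected wells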
Mtb bLac sens: beta-lactam sensitization of Mtb H37Rv, H37Rv; AID 434955, 2010; actives 0.27% (n = 330,000); M. tuberculosis H37Rv growth with meropenem, percent inhibition; hits of this screen are not shown here; inhibition, % at 25 µM;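 active means about 74% or more and at least 40 points above the plate without the antibiotic, then above 30% in a dose series; inconclusive means first-round hits that could not be retested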;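 further: growth measured after seven days incubation then overnight dye step; 0% = bacteria only wells and 100% = bacteria with antibiotic; twin plates without the antibiotic show which effects depend on it; some results filed as inactive read as strong as hits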
RecA intein inh: Mtb RecA intein splicing inhibitors, primary screen, biochemical, fluorescence, HTS. inhibition, %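 (about 9 µM by stock and volumes)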. cell-free RecA intein splicing. actives 0.75% (n = 290,000); in the data active means inhibition above about 30%; inconclusive means no clear call, values can overlap the other calls;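 further: 0% = vehicle wells and 100% = reference inhibitor control wells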
Target sequence (P9WHJ3 whole entry, looked up): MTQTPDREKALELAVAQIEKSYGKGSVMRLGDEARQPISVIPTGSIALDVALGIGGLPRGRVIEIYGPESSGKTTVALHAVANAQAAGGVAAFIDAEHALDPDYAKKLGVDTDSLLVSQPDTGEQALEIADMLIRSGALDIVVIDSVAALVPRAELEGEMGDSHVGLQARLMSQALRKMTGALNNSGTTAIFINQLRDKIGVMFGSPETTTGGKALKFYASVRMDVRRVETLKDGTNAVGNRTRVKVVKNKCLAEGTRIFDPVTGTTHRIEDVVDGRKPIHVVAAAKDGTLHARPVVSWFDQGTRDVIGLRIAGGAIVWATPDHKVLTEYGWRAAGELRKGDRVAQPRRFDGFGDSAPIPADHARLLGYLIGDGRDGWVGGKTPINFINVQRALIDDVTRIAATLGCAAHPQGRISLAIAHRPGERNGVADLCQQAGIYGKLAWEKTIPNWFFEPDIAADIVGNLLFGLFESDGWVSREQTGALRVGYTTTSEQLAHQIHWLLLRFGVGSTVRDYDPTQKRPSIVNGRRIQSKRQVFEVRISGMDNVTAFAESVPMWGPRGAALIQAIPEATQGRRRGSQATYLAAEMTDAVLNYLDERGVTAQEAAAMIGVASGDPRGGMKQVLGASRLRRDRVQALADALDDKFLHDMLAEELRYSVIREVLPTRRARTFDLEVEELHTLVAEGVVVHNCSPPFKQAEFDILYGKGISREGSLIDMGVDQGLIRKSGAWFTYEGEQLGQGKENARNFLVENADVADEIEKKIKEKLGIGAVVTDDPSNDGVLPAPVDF
Arbovirus inh repeat: second read-out of Arbovirus inh, no call of its own (marks repeat the call); inhibition, %; measured here: 10K subset replicate screen; many hits read low in the repeat;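 first of two repeat runs on a subset; 0% = infected and 100% = uninfected wells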
* hit, by the source's call; ? = inconclusive; / = not tested or not shown. This is a subset; the hit share may differ from the screen's.

SMILES	YopH PTP inh	Mtb H37Rv	Arbovirus inh	Mtb bLac sens	RecA intein inh	others
O=C(CCn1nc(-c2ccc(Cl)cc2)ccc1=O)NCc1ccccn1	-42	-3%	3	-3	-1.0
CC(=O)c1c(C)[nH]c(C(=O)NCCc2c[nH]c3ccccc23)c1C	/	/	/	0	-1.8
CN(C)c1ccc(NC(=O)CN2CCN(S(=O)(=O)c3cc(Cl)ccc3Cl)CC2)cc1	-9	2%	-22	-5	-0.9
Cc1c(C(=O)NN2CCN(C)CC2)cccc1[N+](=O)[O-]	-28	-1%	6	-4	-4.4
CN(Cc1ccccc1)C(=S)NC(=O)c1ccc(-c2ccccc2)cc1	-32	?	-16	/	0.4
CN(C(=O)c1cc([N+](=O)[O-])ccc1N1CCCC1)C1CCCCC1	/	/	/	1	0.1
CSc1ccc(/C=N/Nc2ccc(Cl)c(C(=O)O)c2)cc1	/	0%	9	-4	0.6
CCn1c(C)c(C)c2cc(C(=O)NCCCN3CCOCC3)ccc21	/	/	/	-4	0.2
CC(=O)OCC1OC(n2ncc(=O)n(Cc3ccccc3)c2=O)C(OC(C)=O)C1OC(C)=O (stereo unspecified)	/	2%	-5	-9	0.4
Cc1nn(-c2ccccc2)c2nc(-c3ccccc3)cc(C(=O)N3CCOCC3)c12	/	17%	-29	53	3.7
O=C(CN(Cc1ccc(Cl)cc1)C(=O)CNS(=O)(=O)c1ccc(F)cc1)NCC1CCCO1 (stereo unspecified)	/	/	/	2	-2.4
CCn1c(C)cc(/C=C2/NC(=O)N(c3ccccc3)C2=O)c1C	/	2%	8	54	-2.9
Cc1ccc(CCNC(=O)Cc2ccc(NC3=NC4CS(=O)(=O)CC4S3)cc2)cc1 (stereo unspecified)	/	/	/	-11	-2.6
CCOC(=O)c1c(C)[nH]c(C(=O)C(C)Cl)c1C (stereo unspecified)	/	-5%	13	6	9.5
Cc1cc2c(c(=O)n1C)C(C(C)C)C(C#N)=C(N)O2 (stereo unspecified)	-26	/	3	15	-6.3
Cc1oc(-c2ccccc2Cl)nc1CS(=O)CC(=O)NCc1ccccc1Cl (stereo unspecified)	/	/	/	-5	-3.3
c1ccc(C2=NNC(c3ccccn3)=NN2)nc1	/	/	/	100	-3.3
CCOC(=O)N/N=C/c1cn(Cc2ccccc2Cl)c2ccccc12	-23	2%	1	-2	5.5
CCC(=O)Oc1ccc2c(C)cc(=O)oc2c1C	-9	/	8	17	-23	Arbovirus inh repeat=2
O=C(Nc1ccc2ccccc2c1)[C@@H]1C[C@H]1[C@@H](NP(=O)(c1ccccc1)c1ccccc1)c1ccccc1	-13	0%	-19	-10	/
COc1ccccc1NC1=C(C)C(=O)CC1	-4	4%	-10	-4	-5.9	Arbovirus inh repeat=-10
CCOC(=O)N1CCN(C(=O)c2cc3n(n2)C(C(F)(F)F)CC(c2ccc4c(c2)OCO4)N3)CC1 (stereo unspecified)	/	/	/	?	4.0
O=C(NCCC1=CCCCC1)C(=O)NCC1OCCCN1S(=O)(=O)c1ccc(F)cc1 (stereo unspecified)	/	2%	-1	0	-2.8
Cc1ccc(Oc2c(CO)c(-c3ccccc3)nn2C)cc1	/	2%	-17	-2	3.8

Three structures from above, ordered by molar mass, rising:
SMILES	YopH PTP inh	Mtb H37Rv	Arbovirus inh	Mtb bLac sens	RecA intein inh	others
COc1ccccc1NC1=C(C)C(=O)CC1	-4	4%	-10	-4	-5.9	Arbovirus inh repeat=-10
CCC(=O)Oc1ccc2c(C)cc(=O)oc2c1C	-9	/	8	17	-23	Arbovirus inh repeat=2
CCOC(=O)N1CCN(C(=O)c2cc3n(n2)C(C(F)(F)F)CC(c2ccc4c(c2)OCO4)N3)CC1 (stereo unspecified)	/	/	/	?	4.0

Next section.
SMILES	YopH PTP inh	Mtb H37Rv	Arbovirus inh	Mtb bLac sens	RecA intein inh	others
CCc1nnc(NS(=O)(=O)c2ccc(NC(=O)c3cccc([N+](=O)[O-])c3)cc2)s1	/	/	/	2	-2.3
O=C(CCn1cccc1)NCc1ccc2c(c1)OCO2	-45	5%	-4	0	-1.0
CN(C)S(=O)(=O)c1ccc(N2CCCC2)c(C(=O)NNC(=O)COc2ccccc2F)c1	/	/	/	-4	-3.2
O=[n+]1cc(-c2ccccc2)n([O-])c2c1CCCCC2	6	-4%	8	-6	0.4
CN1CCN(C(=O)c2cc(-c3cccc(Cl)c3)on2)CC1	-40	/	-1	-2	-0.2
Cc1c(C(=O)N2CCN(c3ccccc3F)CC2)sc2ncn(CC(=O)N3CCOCC3)c(=O)c12	-7	/	-1	6	/
CCOc1ccc(OCC(=O)Nc2ccc(S(=O)(=O)Nc3cc(C)nc(C)n3)cc2)cc1	-59	-8%	-1	-3	-0.3
COc1cc2nc(NCCCN3CCN(C)CC3)n3nc(-c4ccccc4)nc3c2cc1OC	-1	?	-22	99	1.8
CCN(CC)C(=O)CSc1ccccc1N	-40	-6%	-2	-9	-2.2	Arbovirus inh repeat=0
Cc1cccc(CCNC(=O)CC2C(=O)NCCN2Cc2ccccc2C)n1 (stereo unspecified)	/	/	/	?	0.9
Cc1cccc(N(CC(=O)NCc2ccco2)C(=O)CCC(=O)Nc2ccccn2)c1	-26	2%	5	/	1.1
CCCCCCCCCCSc1n[nH]c(N)n1	-26	9%	-25	3	-3.6
CCOC(=O)c1csc(NC(=O)c2ccc(C#N)cc2)n1	/	10%	6	3	-0.4
COc1ccc(/C=C(\C#N)C(=O)OCC(=O)NCc2ccco2)cc1	/	/	/	-6	-4.7
C/C=C/C(=O)OCc1csc(CC(=O)Nc2ccccc2C)n1	/	/	/	1	-0.1
Cc1noc(C)c1C(=O)NCCc1ccc(Cl)cc1	10	-3%	6	-1	3.9
O=C(c1cccc([N+](=O)[O-])c1)N1CCN(Cc2ccc3c(c2)OCO3)CC1	/	-1%	0	-4	-8.0
COc1ccc(-c2cc(C(=O)N3CCCCC3)c3ccccc3n2)cc1	/	/	/	19	3.1
COc1cc(C(=S)N2CCCCC2)ccc1OCC(=O)Nc1ccc(F)cc1	/	/	/	-6	1.5
O=C1CN(C(=O)OCc2ccccc2)c2ccccc2N1	4	-11%	-2	-1	0.4
CC(NC(=O)c1ccccc1Br)C1CC2CCC1C2 (stereo unspecified)	/	/	/	99	1.6
Cc1ccc(-c2cc(C(=O)N3CCN(C(=O)c4ccco4)CC3)[nH]n2)cc1C	/	/	/	2	-3.3
COC(=O)CNC(=O)COc1ccccc1	-18	4%	-1	-8	-2.4
CCN1CCN(Cc2cc3c(cc2[N+](=O)[O-])OCO3)CC1	/	/	/	-5	-3.5

Pulled one by one from the entries so far:
SMILES	YopH PTP inh	Mtb H37Rv	Arbovirus inh	Mtb bLac sens	RecA intein inh	others
COc1ccc(-c2cc(C(=O)N3CCCCC3)c3ccccc3n2)cc1	/	/	/	19	3.1
COc1cc(C(=S)N2CCCCC2)ccc1OCC(=O)Nc1ccc(F)cc1	/	/	/	-6	1.5
O=C(c1cccc([N+](=O)[O-])c1)N1CCN(Cc2ccc3c(c2)OCO3)CC1	/	-1%	0	-4	-8.0
CCOC(=O)c1csc(NC(=O)c2ccc(C#N)cc2)n1	/	10%	6	3	-0.4
Cc1ccc(-c2cc(C(=O)N3CCN(C(=O)c4ccco4)CC3)[nH]n2)cc1C	/	/	/	2	-3.3

Additional entries follow.
SMILES	YopH PTP inh	Mtb H37Rv	Arbovirus inh	Mtb bLac sens	RecA intein inh	others
Cc1cc(C(=O)N2CCOCC2)ccc1[N+](=O)[O-]	/	-5%	5	-5	-1.5
Cc1ccc(NC(=S)Nc2ccc3cn[nH]c3c2)cc1	-7	2%	4	1	12
COc1ccccc1N1CCN(c2ccc(N3C(=O)CCC3=O)cc2[N+](=O)[O-])CC1	/	-3%	0	-2	-3.4
Cc1ccccc1C(=O)Nc1cccc(NC(=O)c2ccccc2[N+](=O)[O-])c1	/	/	/	4	-2.2
CC(=O)Nc1ccc(S(=O)(=O)NCC2CCC(C(=O)NC(C)c3ccc4c(c3)OCCO4)CC2)cc1 (stereo unspecified)	/	0%	1	-10	0.8
CCOC(=O)NC(=O)/C(C#N)=C\NNc1ncc(C(F)(F)F)cc1Cl	/	6%	2	7	-1.0
C/C(=N\Nc1nc(C(C)(C)C)cs1)c1ccccc1	/	/	/	70	17
COc1cc(OC)c(NC(=S)Nc2cccc(C)c2)cc1Cl	-34	-6%	2	-1	-1.7
COc1ccccc1N1C(=O)c2ccccc2NC1c1ccncc1 (stereo unspecified)	-10	-2%	4	-8	-2.3
CC1=C(C(=O)Nc2ccccc2)C(c2ccc(O)cc2)N2C(=O)CSC2=N1 (stereo unspecified)	-12	-12%	4	-3	0.6
O=C(NC1CCCCCC1)C1CCN(C(=O)c2cccc(Cl)c2)CC1	/	/	/	-1	0.4
Cc1cccc(Cc2nnc(CCC(=O)N(C)Cc3ccncc3C)o2)c1	/	-2%	21	-5	16

Filtered by structure: those above with an NH in an aromatic ring.
SMILES	YopH PTP inh	Mtb H37Rv	Arbovirus inh	Mtb bLac sens	RecA intein inh	others
CC(=O)c1c(C)[nH]c(C(=O)NCCc2c[nH]c3ccccc23)c1C	/	/	/	0	-1.8
CCOC(=O)c1c(C)[nH]c(C(=O)C(C)Cl)c1C (stereo unspecified)	/	-5%	13	6	9.5
CCCCCCCCCCSc1n[nH]c(N)n1	-26	9%	-25	3	-3.6
Cc1ccc(-c2cc(C(=O)N3CCN(C(=O)c4ccco4)CC3)[nH]n2)cc1C	/	/	/	2	-3.3
Cc1ccc(NC(=S)Nc2ccc3cn[nH]c3c2)cc1	-7	2%	4	1	12

Carrying on.
SMILES	YopH PTP inh	Mtb H37Rv	Arbovirus inh	Mtb bLac sens	RecA intein inh	others
COC(=O)c1c(CCl)noc1C(=O)NC(C)C	-29	58%	5	86	3.0
Cc1ccc(N2C(=O)C3C=NNC3C2=O)cc1 (stereo unspecified)	/	-7%	1	-14	0.0
Cc1csc(NC(=O)Cn2cnnn2)n1	-38	-2%	-3	-9	0.6
COc1ccc(CCNc2nncc(=O)[nH]2)cc1OC	2	-6%	8	2	0.6
COc1cc2ccccc2cc1C(=O)N1CCN(C(C)=O)CC1	/	/	/	-6	-0.3
Cc1ccc2c(c1)cc(CN(Cc1ccc3c(c1)OCO3)S(=O)(=O)c1ccccc1)c1nnnn12	-21	-7%	4	-6	-0.7
COc1ccc(Cc2nnc(-c3cccc(C)c3)o2)cc1OC	-14	1%	-3	1	0.7	Arbovirus inh repeat=5
Oc1ccc(-c2csc(Nc3ncccn3)n2)c(O)c1	/	1%	-9	5	-0.5
Cc1ccc(CN2CCCN(Cc3c(F)cccc3Cl)S2(=O)=O)cc1	/	/	/	-8	10
Cc1oc(-c2cc(F)ccc2F)nc1CN1CCN(C)C(=O)[C@@H]1C	/	3%	3	4	0.8
COc1ccc(NC(=O)CN2CCN(CC(=O)Nc3ccccc3Cl)CC2)c(OC)c1	-8	4%	0	8	-0.8
Cc1ccc(CNC(=O)c2ccccc2SCC(=O)NCC2CCCCC2)cc1	-27	5%	-6	-1	2.9
COc1ccc(OC)c(NC(=O)CCC(=O)N(Cc2ccc(OC)c(OC)c2)c2nccs2)c1	/	-4%	0	-2	-0.1
O=c1[nH]c(NC2CCCCC2)c([N+](=O)[O-])c(=O)[nH]1	-36	-8%	3	-1	1.9
Cn1c(=O)oc2cc(S(=O)(=O)N3CCC(C(=O)NCc4ccccc4)CC3)ccc21	/	/	/	-3	0.2
CCc1nnc(NC(=O)CSc2nnc(-c3ccccc3O)n2-c2ccc(C)cc2)s1	-31	0%	-22	-7	3.5
CCN(CC)CCCNC(=O)Cn1ncn2cccc2c1=O	-10	-9%	4	2	2.2
Cc1ccc(-n2c(C)cc(=O)cc2C)cc1[N+](=O)[O-]	/	/	/	-5	-0.4
Cc1ccc(N(C(C)C(=O)O)S(=O)(=O)c2c(C)n[nH]c2C)cc1 (stereo unspecified)	-46	2%	-6	-2	0.5

A run of entries taken from the entries so far, for reference:
SMILES	YopH PTP inh	Mtb H37Rv	Arbovirus inh	Mtb bLac sens	RecA intein inh	others
COc1ccc(OC)c(NC(=O)CCC(=O)N(Cc2ccc(OC)c(OC)c2)c2nccs2)c1	/	-4%	0	-2	-0.1
O=c1[nH]c(NC2CCCCC2)c([N+](=O)[O-])c(=O)[nH]1	-36	-8%	3	-1	1.9
Cn1c(=O)oc2cc(S(=O)(=O)N3CCC(C(=O)NCc4ccccc4)CC3)ccc21	/	/	/	-3	0.2
